rRNA inh HTS – reduced GFP signal of wild-type E. coli, primary screen, bacterial rRNA inhibitor project, GFP/RFP fluorescence, OD600, single point. E. coli WT GFP vs humanized-ribosome RFP mutants, 24 h; stronger effect = lower value; DMSO median 0, no signal -100. 1.6% of 350,000 active. GFP signal change (wild-type ribosome), % (concentration not given with the values). AID 720706, 2013;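 active = significant combined selectivity score with lowered wild-type GFP, culture density cut under 30%, mutant RFP and density less affected; inactive = any of these conditions unmet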; also: one replicate is shown; some compounds called inactive have numbers as strong as hits
E coli growth – E. coli growth inhibition, primary screen, OD600; Escherichia coli growth, 23 h; stronger effect = lower value; OD600 absorbance (test concentration not listed); 0.21% of 330,000 active;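 active = OD600 absorbance below the run mean of sample wells minus 3.6 SD, in any replicate, cut at about 0.56 in these data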;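 also: stock transfer was 300 nL into about 60 µL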
FGF22 binding – binders of human FGF22 protein, primary screen, FGF22 synaptogenesis inhibitor project, biophysical, thermal shift, single point | calls only at 9.99 µM | AID 651658, 2012 | 1.5% of 340,000 active | recombinant FGF22 thermal shift, SYPRO orange fluorescence; percent of sucrose octasulfate shift, DMSO zero;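 active = melting point raised past a set limit in the mean and every replicate; three in four hits are not shown here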
Target sequence (Q9HCT0 whole entry, looked up): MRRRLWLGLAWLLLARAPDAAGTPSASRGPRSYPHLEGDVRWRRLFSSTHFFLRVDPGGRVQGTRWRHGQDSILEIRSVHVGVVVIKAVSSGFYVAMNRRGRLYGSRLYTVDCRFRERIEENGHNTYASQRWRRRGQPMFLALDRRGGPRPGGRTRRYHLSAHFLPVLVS
HNF4A DNA FP – change in binding of human HNF4A to DNA, primary screen, biochemical, fluorescence polarization, FITC-DNA. Hepatocyte nuclear factor 4-alpha (Homo sapiens), P41235. 1 h. activity change, % at 10 µM. 0.3% of 360,000 active; in the data active = activity change above about 30%, passing the limit was not always enough;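 also: controls were the assay level and a saturating level of protein; the project sought stronger binding though the title names inhibitors; some compounds called inactive have numbers as strong as hits; positive values seem to mean higher polarization but the record does not say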
ALR inh – inhibitors of human ALR sulfhydryl oxidase, primary screen, biochemical, H2O2 detection, HRP-luminol luminescence, single point. purified ALR, DTT oxidation. 3.8% of 290,000 active. AID 485317, 2010. inhibition, % (no concentration beside the values). FAD-linked sulfhydryl oxidase ALR (Homo sapiens), P55789;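 active = mean and each replicate at 75% or more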;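 also: stock transfer was 7.5 nL into about 7.5 µL; 0% = neutral wells and 100% = wells with inactivated enzyme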
Target sequence (P55789 whole entry, looked up): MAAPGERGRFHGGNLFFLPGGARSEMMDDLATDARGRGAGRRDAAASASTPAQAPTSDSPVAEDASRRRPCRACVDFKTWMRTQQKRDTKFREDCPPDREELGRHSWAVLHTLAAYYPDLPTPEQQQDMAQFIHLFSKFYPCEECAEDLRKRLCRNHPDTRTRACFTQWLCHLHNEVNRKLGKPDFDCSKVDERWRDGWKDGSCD
UCH37 DUB inh – inhibitors of human UCH37 deubiquitinase, primary screen, biochemical, Ub-AMC cleavage, fluorescence | Ubiquitin carboxyl-terminal hydrolase isozyme L5 (Homo sapiens), Q9Y5K5 | purified proteasome/UCH37 | inhibition, % (no concentration beside the values) | 0.33% of 330,000 active;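 active = mean of two replicates above 20%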;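 also: 0% = compound-free wells with enzyme and 100% = wells lacking proteasome; stock transfer was 100 nL into about 20 µL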
Target sequence (Q9Y5K5 whole entry, looked up): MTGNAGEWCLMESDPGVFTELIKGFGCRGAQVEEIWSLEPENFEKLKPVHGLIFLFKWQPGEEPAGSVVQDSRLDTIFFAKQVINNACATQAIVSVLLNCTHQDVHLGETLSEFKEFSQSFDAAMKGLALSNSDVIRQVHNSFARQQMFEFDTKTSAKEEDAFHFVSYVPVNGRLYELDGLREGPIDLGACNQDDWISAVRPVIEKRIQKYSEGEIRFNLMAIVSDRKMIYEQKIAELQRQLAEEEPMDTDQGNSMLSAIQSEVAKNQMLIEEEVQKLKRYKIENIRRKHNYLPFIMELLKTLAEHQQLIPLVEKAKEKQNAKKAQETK
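assay system = human UCH37 enzyme supplied as purified proteasome complex | amount = proteasome at 0.15 nM in the dispensed enzyme solution | schedule = 30 min compound-proteasome preincubation then 25 min substrate reaction, room temperature | measured by = fluorescence, ex 355 nm, em 460 nm | benchmarks = no-proteasome wells (full inhibition) and compound-free wells (no inhibition)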
Beta2AR agonist – beta2AR agonists driving receptor internalization, primary screen, cell-based, FAP fluorogen, flow cytometry; response, % (no concentration beside the values); 0.43% of 340,000 active; Am2.2-beta2AR cells; reference of the scale not given here; AID 504454, 2011; Beta-2 adrenergic receptor (Homo sapiens), P07550;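 active = response above a set limit, near 3 SD of response in nonfluorescent compounds, cut at about 42% in these data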;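 also: stock transfer was 100 nL into about 11 µL; a reference agonist was the positive control; negative values mostly stem from fluorescent compounds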
rRNA inh HTS OD600 – second read-out of rRNA inh HTS, no call of its own (marks repeat the call); OD600 change, %; measured here: OD600 growth;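 optical density of the mix in the first replicate; 0 = DMSO median and -100 = no signal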
rRNA inh HTS RFP – second read-out of rRNA inh HTS, no call of its own (marks repeat the call); RFP signal change, %; measured here: RFP humanized mutant strains;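 first replicate; 0 = DMSO median and -100 = no signal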
Starred values were filed as active, the others as inactive; i = inactive; nt = not tested or not shown.

Start of the data: the first 2 entries, to show the layout:
Molecule	rRNA inh HTS	rRNA inh HTS OD600	rRNA inh HTS RFP	E coli growth	FGF22 binding	HNF4A DNA FP	ALR inh	UCH37 DUB inh	Beta2AR agonist
COc1cccc(CNC(=O)CN(C)S(=O)(=O)c2ccc3c(c2)n(C)c(=O)c(=O)n3C)c1	5	20	-0.8	0.71	i	0.8	-2	-0.6	-7
CCOc1ccc(CN2CCN(CC(O)Cn3c4ccccc4c4ccccc43)CC2)cc1 (stereo not drawn)	nt	nt	nt	0.68	nt	1.0	-6	3.7	2

Results, repeating the preview:
Molecule	rRNA inh HTS	rRNA inh HTS OD600	rRNA inh HTS RFP	E coli growth	FGF22 binding	HNF4A DNA FP	ALR inh	UCH37 DUB inh	Beta2AR agonist
COc1cccc(CNC(=O)CN(C)S(=O)(=O)c2ccc3c(c2)n(C)c(=O)c(=O)n3C)c1	5	20	-0.8	0.71	i	0.8	-2	-0.6	-7
CCOc1ccc(CN2CCN(CC(O)Cn3c4ccccc4c4ccccc43)CC2)cc1 (stereo not drawn)	nt	nt	nt	0.68	nt	1.0	-6	3.7	2
CC(C)CCOc1ccc(C(=O)N2CCCC2C(=O)O)cc1 (stereo not drawn)	9	11	0.9	0.61	i	2.9	0	0.0	-6
O=C1NN=COc2ccccc21	-3	7	2.3	0.71	nt	5.7	6	-4.1	-5
CC1(C(=O)Nc2ccc3c(c2)OCCO3)CCN1C(=O)c1ccco1 (stereo not drawn)	20	19	0.1	nt	i	-2.0	nt	nt	nt
COc1ccc(OC)c(NC(=O)CCN2C(=O)c3cccc([N+](=O)[O-])c3C2=O)c1	1	-2	2.2	0.69	i	-3.6	-26	5.4	2
O=C(NC(CSC(=O)c1ccccc1)C(=O)O)OCc1ccccc1 (stereo not drawn)	8	7	-0.3	nt	i	5.2	nt	nt	-3
COc1ccc(C)cc1-n1nnnc1SCC1CCCCO1 (stereo not drawn)	nt	nt	nt	0.66	nt	-2.6	-2	5.6	1
CCOC(=O)c1nnn(-c2nonc2-n2cccc2)c1CN1CCC(C)CC1	nt	nt	nt	0.73	nt	3.2	9	-0.4	11
CCCCCSc1nc(N2CCOCC2)c2c(c1C#N)CC(C)(C)OC2	nt	nt	nt	0.71	nt	-2.8	-1	1.2	5
O=C(CSc1ccc(-c2cccc([N+](=O)[O-])c2)nn1)N1CCCCC1	-2	-10	4.5	0.7	i	0.0	1	1.7	-3
Cc1ccc(S(=O)(=O)NCCN2CCOCC2)c(C)c1	9	9	0.3	0.67	i	-0.2	0	-1.3	-3
Cc1ccc(S(=O)(=O)N2C[C@@H](C)[C@]3(C2)[C@H](O)[C@H](OC(=O)NC2CCCC2)C[C@H]2C(=O)N(c4ccccc4)C(=O)[C@H]23)cc1	-3	-8	3.4	nt	i	-1.0	nt	nt	nt
O=C(CSc1nnc(CNC(=O)c2ccco2)o1)Nc1ccc(F)cc1F	7	11	0.1	0.67	i	-0.6	-4	5.3	9
CCCCN(C)C(=O)CSc1nc(NCc2ccc(OC)cc2)c2ccccc2n1	nt	nt	nt	0.71	nt	-0.4	-10	1.5	-14
CC1(C)CC(=O)C2=C(C1)N(c1ccccc1C#N)C(N)=C(C#N)C2c1cccs1 (stereo not drawn)	nt	nt	nt	0.73	nt	-0.9	6	4.1	0
Cc1ccc(-n2nnc3c(=O)n(Cc4ccccn4)cnc32)cc1C	9	2	-0.5	0.74	i	-1.3	8	1.3	-3
CCOCCCn1c(=S)[nH]c2cc(C(=O)N3CCN(c4ccccc4)CC3)ccc2c1=O	16	18	-0.9	0.64	i	1.1	10	0.9	-4
Nc1c(-c2ccccc2)c(CSc2nc3ccccc3[nH]2)nn1-c1ccc(Cl)cc1	-19*	-3.5*	0.8*	0.71	i	-0.5	nt	2.0	-18
N#C/C(=C\c1ccc(-c2ccccc2)cc1)c1nc(-c2ccco2)cs1	nt	nt	nt	0.7	i	22	-7	2.1	4
O=C(N/N=C/c1ccc[nH]1)c1cc(-c2ccc(Cl)cc2)nc2ccccc12	-38*	-11*	-4.1*	nt	nt	7.4	9	nt	5
O=C(NCCCN1CCOCC1)c1c(-c2ccccc2)oc2c1C(OCCCCCO)CCC2 (stereo not drawn)	16	17	2.1	nt	i	0.4	nt	nt	nt
COc1ccccc1CNC(=O)CCNS(=O)(=O)c1ccc2c(c1)oc(=O)n2C	11	6	-0.6	0.65	i	6.4	-3	3.7	-1
Cc1cc(C)cc(NC(=O)CN2CCC(NC(=O)Cc3ccccc3)CC2)c1	-3	-7	-1.4	0.7	nt	0.0	-2	2.1	-3
CC1=C(C)N(C)[C@H](c2ccccc2Br)[C@H](O)C1=O	5	10	0.2	nt	i	-1.4	nt	nt	-3
CCCN1CCN(C(=O)Cn2nc(C)n3c(cc4sccc43)c2=O)CC1	1	4	-1.3	0.66	i	5.6	-1	2.7	-30
Cc1ccc(OCC(=O)Nc2ccc3c(c2)nc(CCN2CCCC2)n3C)cc1	-1	0	0.9	nt	i	5.3	nt	nt	nt
Cc1ccc(-n2nc3c(=O)n(CCCC(=O)NCc4ccc(C)o4)nc(C)c3c2C)cc1	0	1	-0.3	0.7	i	3.3	nt	0.2	4
CCN1CN=C(NS(=O)(=O)c2ccc(C)cc2)NC1	nt	nt	nt	0.72	nt	1.6	2	0.0	-4
O=C(O)C1C2C=CC(C2)C1C(=O)N1CCN(C/C=C/c2ccccc2)CC1 (stereo not drawn)	nt	nt	nt	nt	nt	-1.3	-13	nt	9

4 entries already listed, ordered by SMILES length, low to high:
Molecule	rRNA inh HTS	rRNA inh HTS OD600	rRNA inh HTS RFP	E coli growth	FGF22 binding	HNF4A DNA FP	ALR inh	UCH37 DUB inh	Beta2AR agonist
CC1=C(C)N(C)[C@H](c2ccccc2Br)[C@H](O)C1=O	5	10	0.2	nt	i	-1.4	nt	nt	-3
Cc1cc(C)cc(NC(=O)CN2CCC(NC(=O)Cc3ccccc3)CC2)c1	-3	-7	-1.4	0.7	nt	0.0	-2	2.1	-3
CCOCCCn1c(=S)[nH]c2cc(C(=O)N3CCN(c4ccccc4)CC3)ccc2c1=O	16	18	-0.9	0.64	i	1.1	10	0.9	-4
Cc1ccc(S(=O)(=O)N2C[C@@H](C)[C@]3(C2)[C@H](O)[C@H](OC(=O)NC2CCCC2)C[C@H]2C(=O)N(c4ccccc4)C(=O)[C@H]23)cc1	-3	-8	3.4	nt	i	-1.0	nt	nt	nt

(more compounds)
Molecule	rRNA inh HTS	rRNA inh HTS OD600	rRNA inh HTS RFP	E coli growth	FGF22 binding	HNF4A DNA FP	ALR inh	UCH37 DUB inh	Beta2AR agonist
O=C(CSc1ccc2nnc(-c3ccccc3)n2n1)NCc1ccc2c(c1)OCO2	12	11	0.7	0.67	i	-1.9	-10	5.5	4
CCN1C(=O)CCCc2ccccc21	10	15	-2.0	0.66	i	-0.3	-2	1.2	1
CC(Cc1ccsc1)NC(=O)CCc1nnc(COc2ccccc2)o1 (stereo not drawn)	14	3	4.3	0.65	i	-0.6	-1	1.0	0
CSc1ccc(Cn2c(C)c(C(=O)NCc3ccc(Cl)c(Cl)c3)sc2=O)cc1	9	-6	1.4	nt	i	-2.4	nt	nt	nt
CC(=O)Nc1cc2c(c([N+](=O)[O-])c1C)C(C)(C)CC2(C)C	nt	nt	nt	0.68	i	-1.9	nt	5.2	10
Cc1ccc(C)c(OCc2ccc(C(=O)Nc3ccc([N+](=O)[O-])cn3)o2)c1	8	8	5.6	0.73	i	2.1	-2	6.0	9
CC1(C)C(=O)Nc2ccccc2N1C(=O)COC(=O)Cc1ccc(Cl)c(Cl)c1	-48	-74	-6.9	nt	i	-5.2	-2	nt	-3
Cc1c(NC(=O)c2cc3nc(-c4ccc(Br)cc4)cc(C(F)(F)F)n3n2)c(=O)n(-c2ccccc2)n1C	nt	nt	nt	0.77	nt	1.7	nt	-0.6	-12
COc1cc(NC(=O)COC(=O)CCc2cc(OC)c(OC)c(OC)c2)cc(OC)c1	13	13	1.3	0.72	i	-0.6	-4	0.4	-2
CCN1CCN(C(=O)CN(c2ccc(F)cc2)S(=O)(=O)c2ccc(OC)c(OC)c2)CC1	3	17	1.2	0.71	i	-0.9	1	-1.9	2
Cc1ccc(C2C3=C(CCCC3=O)N=C3c4ccccc4C(=O)C32)cc1 (stereo not drawn)	-53	-72	-22	0.66	i	0.4	nt	0.4	-9
CCCCc1nc(NCC2CCCO2)c(C#N)c2c1COC(C)(C)C2 (stereo not drawn)	nt	nt	nt	0.76	nt	-1.7	-8	-55	7
O=C(O)CCCN1C(=O)c2ccc(Oc3cccc([N+](=O)[O-])c3)cc2C1=O	8	7	-3.3	0.66	i	-3.6	-3	1.7	-1
COc1ccc(C)cc1NC(=O)c1ccc([N+](=O)[O-])cc1[N+](=O)[O-]	-2	0	-1.2	0.7	i	8.5	-12	3.3	-6
COc1ccc(OCCSc2nnc3sc4ccccc4n23)cc1	-57	-73	-30	0.7	i	2.3	-3	1.1	-4
OC(COc1ccc2ccccc2c1)CN1CCCC1 (stereo not drawn)	-10	-14	3.7	0.71	i	-1.4	-7	4.1	7
O=C(c1ccc(Cn2c(=O)[nH]c3ccccc3c2=O)cc1)N1CCN(c2ccccc2)CC1	nt	nt	nt	0.68	nt	1.6	4	-2.3	7
Oc1ccc(-c2csc(Nc3ccccn3)n2)cc1O	0	9	-3.0	0.66	i	3.5	98*	-1.4	9
CN(C)c1nc(N)nc(-c2nc3ccccc3s2)n1	10	3	-2.3	0.67	i	0.7	13	-8.1	-16
CCOC(=O)c1cc(S(=O)(=O)N2CCN(C3CCCCC3)CC2)cn1C	10	14	-0.2	0.67	i	1.4	-5	5.2	-1
Cc1ccc(OCC(=O)NNC(=S)NC(=O)C2CC2)c(C)c1	-40	-69	-13	nt	i	1.7	32	nt	1
Cc1ccc(C(=O)Nc2ccc3c(c2)ncn3C)cc1	nt	nt	nt	0.68	nt	0.6	-4	1.0	2
COc1ccccc1/C=N\Nc1cc(C)nc(-n2nc(C)cc2C)n1	nt	nt	nt	nt	nt	-0.3	0	nt	-5
COc1ccc(NC(=O)C(=O)NCc2ccncc2)c(OC)c1	nt	nt	nt	0.75	nt	-2.7	-15	2.8	0

Bioassay records: PubChem, several laboratories

Only part of the results is shown; the hit share may differ from the screen's.
